# D2 ag = activates the human D2 dopamine receptor; P14416; DiscoveRx PathHunter D2 beta-arrestin, luminescence, 90 min; 100% = 57 uM dopamine signal; activation, % (test concentration not listed); 360,000 compounds, 0.084% hits; AID 624465; in the data active = activation above about 40%; inconclusive = about 15% to 40%; inactive = below about 15%; further: compound concentration not given in the record; the text of the record calls up to 30% inactive
#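 DiscoveRx PathHunter D2 beta-arrestin cells (2,100/well) attached overnight, then compound-stimulated 90 min at 37 C in HBSS/10 mM HEPES/0.1% Tween-20 buffer; beta-galactosidase complementation read by luminescence after 1 h at ambient temperature. Dopamine 57 uM final (EC100) as control.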
# PINK1 modulator = PINK1 expression modulation; AID 624263; 410,000 compounds, 0.2% hits; Potency, µM (series often up to 76.6 µM), inactives show at the top dose activation (PINK1 increase), usual class: activators; PINK1 immunofluorescence, high-content cytometry, 24 h; active = well fitted activation curve with a large enough effect; inconclusive = small, poorly fitted or top-dose-only effect; inactive = flat fitted curve, though single readings scatter; cell line not stated here;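 further: potency means the concentration at half of the fitted maximal effect; % of control where 0% means no effect; nearly all actives have a fitted effect of over 65% in size; a mitochondrial uncoupler was the plate control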
#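 Stable cell line treated 24 h with compounds at 5 concentrations (CCCP controls), then fixed and immunostained for PINK1 plus nuclear and cell stains; PINK1 immunofluorescence quantified by laser-scanning microplate cytometry.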
# TRPML1 ag = agonists of human TRPML1 channel | Q9GZU1 | TRPML1-expressing cells, Ca2+ dye fluorescence, FDSS; host cell line not named in the record; reference of the full effect not given here | activation, % (concentration not given with the values) | 410,000 compounds, 0.12% hits | AID 624414; in the data active = activation above about 50%; inconclusive = about 30% to 50%; inactive = below about 30%; further: 0% is about no effect; the text of the record puts the active cut at 80%
#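 Cells: TRPML1-DL, 1X Tet inducer, ~16 h at 37 degrees C/5% CO2. Dye: ABD Ca8 no-wash + quencher, 45-90 min RT. Read: 10 s baseline, compound add, 110 s agonist phase; 54-4 EC80 (4uM final), 110 s antagonist phase.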
# Six1-Eya2 blk = blocks human Six1 binding to Eya2; 360,000 compounds, 0.56% hits; activity change, % (test concentration not listed); AlphaScreen GST-Six1/His-Eya2 binding, biochemical; stronger effect = lower value; control for the full effect not named in the record; in the data active = activity change below about -65%; inconclusive = about -30% to -65%; inactive = above about -30%; further: on the % scale 0 is the no-effect control and ±100 the full control effect
# Target sequence (O00167 whole entry, looked up): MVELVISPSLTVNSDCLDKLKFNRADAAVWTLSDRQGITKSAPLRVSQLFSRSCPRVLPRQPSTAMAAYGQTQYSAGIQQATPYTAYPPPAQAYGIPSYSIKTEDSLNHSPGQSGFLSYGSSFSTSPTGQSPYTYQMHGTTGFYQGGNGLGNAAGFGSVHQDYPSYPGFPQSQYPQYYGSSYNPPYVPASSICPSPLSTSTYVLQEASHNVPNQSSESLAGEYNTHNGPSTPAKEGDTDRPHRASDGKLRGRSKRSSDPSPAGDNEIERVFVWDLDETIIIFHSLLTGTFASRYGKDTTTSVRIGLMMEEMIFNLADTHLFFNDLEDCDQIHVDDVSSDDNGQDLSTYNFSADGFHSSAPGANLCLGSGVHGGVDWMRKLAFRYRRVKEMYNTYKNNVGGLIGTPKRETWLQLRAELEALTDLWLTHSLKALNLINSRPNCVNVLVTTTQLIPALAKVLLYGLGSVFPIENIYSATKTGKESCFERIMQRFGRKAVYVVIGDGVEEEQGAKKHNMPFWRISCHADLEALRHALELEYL
# Target sequence (Q15475 whole entry, looked up): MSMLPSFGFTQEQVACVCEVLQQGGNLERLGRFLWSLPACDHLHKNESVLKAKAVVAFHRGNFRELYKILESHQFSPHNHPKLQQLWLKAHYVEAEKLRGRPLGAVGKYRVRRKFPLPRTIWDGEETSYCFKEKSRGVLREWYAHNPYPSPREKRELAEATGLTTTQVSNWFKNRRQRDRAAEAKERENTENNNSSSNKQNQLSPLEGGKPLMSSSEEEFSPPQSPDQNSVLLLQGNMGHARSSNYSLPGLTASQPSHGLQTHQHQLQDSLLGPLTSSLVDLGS
#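 Homogeneous AlphaScreen proximity assay pairing GST-Six1 with His-tagged Eya2 (added as 5X mix: 250 nM and 500 nM) in 50 mM Tris pH 8.0, 300 mM NaCl, 1 mM TCEP. Glutathione donor and nickel acceptor beads; 1 h, 37 °C, dark.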
# TRPML1 inh = inhibitors of human TRPML1 channel. Q9GZU1. TRPML1-inducible cells, Ca2+ dye fluorescence, FDSS; stronger effect = lower value; inhibition of EC80 agonist-evoked calcium signal. activity change, negative = inhibition, % (no concentration beside the values). 390,000 compounds, 0.02% hits. AID 624415; in the data active means activity change below about -50%; inconclusive means about -30% to -50%; inactive means above about -30%;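 further: stimulus is agonist 54-4 at its EC80 concentration; on the % scale 0 is the no-effect control and ±100 the full control effect; compound concentration not given in the record; the text of the record puts the active cut at -80%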
#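 Calcium fluorescence in TRPML1-DL cells induced overnight with Tet: a 110 s read after compound pin addition, then a 110 s antagonist read after challenge with 54-4 at 4 uM final (EC80).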
# CtBP-E1A inh = CtBP/E1A binding inhibition; AlphaScreen GST-E1A/His-CtBP binding, 1536-well; stronger effect = lower value; control for the full effect not named in the record; AID 651724; activity change, % (no concentration beside the values); 340,000 compounds, 0.49% hits; in the data active means activity change below about -65%; inconclusive means about -30% to -65%; inactive means above about -30%; further: on the % scale 0 is the no-effect control and ±100 the full control effect
#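 Steps: dispense buffer (Tris pH 8.0, NaCl 300 mM, TCEP 1 mM, BSA, Tween 20); add 5X protein mix (GST-E1A, His-CtBP, 125 nM each); pin 23 nL compound; 2 h at 37 °C, dark; add 5X beads (50 ug/mL); 1 h; read.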
# * marks the source's active call; other numbers are inactive results; ? = inconclusive; · = no result given; & = joins results of further samples; [ ] = remark or other dose. Random draw from the library. Share with any hit: about 1%.
SMILES,D2 ag,PINK1 modulator,TRPML1 ag,Six1-Eya2 blk,TRPML1 inh,CtBP-E1A inh
CC(O)CNCCNCc1cccs1 (stereo not given),-1.7,0.8%,-0.3,3,-12,0
O=C(CNC(=O)c1cnccc1C(F)(F)F)c1cccc(Cl)c1,-1.3,0.1%,-0.2,0,-26,-1
O=C1N(c2cccc(Cl)c2)C(c2ccccc2)N2CCCN12 (stereo not given),-1.6,2.5%,1.5,0,-12,-7
CCN(CC)S(=O)(=O)c1cccc(C(=O)N/N=C(\C)c2ccc(O)cc2O)c1,-6.3,6.5%,0.1,-67*,3,?
O=S(=O)(c1ccc(C2CCCCC2)cc1)N1CCN(c2ccc(Cl)c(Cl)c2)CC1,·,-0.5%,2.0,·,5,·
CCn1nnnc1SCC(=O)c1ccc(NC(C)=O)cc1,-2.9,-0.5%,-0.1,0,-1,-1
COCCn1c(SCC(=O)NCCc2ccccc2)nc2c([nH]c3ccccc32)c1=O,0.6,10%,-0.5,-13,-3,0
Clc1cccc(-c2nn3c(Cn4cnc5ccccc54)nnc3s2)c1,-3.0,-3.4%[38.3 µM],-0.6,-2,7,-10
CNC(=O)Nc1cccc(NC(=O)NC)n1,-1.5,1.8%,3.1,-1,8,-4
O=c1c2ccccc2nnn1CSc1ccc2ccccc2n1,-1.8,9.2%,3.4,13,-1,-1
COc1ccc(-c2csc(=NCCO)n2-c2ccccc2)cc1,2.4,-0.2%,-1.2,-11,10,-22
CCN(CC(=O)Nc1ccc(NC(C)=O)cc1)C(=O)C1CCC1,2.4,-3.3%,0.9,-2,14,-2
C#CCN(C[C@@H]1[C@@H](OC(=O)NCc2ccccc2F)[C@@H](OC(=O)NCc2ccccc2F)Cn2c(=O)ccc(=O)n21)S(=O)(=O)c1ccc(C)cc1,-7.5,-0.4%,2.2,-8,-2,-9
C=CCSc1n[nH]c2nc3c(c(=O)n12)C1(CCCC1)Cc1ccccc1-3,-0.3,14%,1.3,3,0,0
C=CCn1c(SCc2nc3ccccc3nc2C)nnc1-c1ccoc1C,-2.0,0.3%,0.2,-13,16,0
O=C(CSc1nnc(Cc2ccccc2)n1C1CCCCC1)N1CCOCC1,-0.4,-2.0%,0.9,7,-15,10
Cc1ccc(Cn2c(CO)cnc2SCc2ccc(F)cc2)cc1,·,-4.2%,0.0,·,29,·
O=C(O)CCCCCCCCCCCNC(=O)NC12CC3CC(CC(C3)C1)C2,-2.7,1.6%,0.1,6,-14,3
CCOC(=O)c1ccc(NC(=O)N2CCN(c3ccccc3OC)CC2)cc1,1.7,2.2%,0.2,-8,-5,·
O=C(NC(=S)N1CCN(c2ccc([N+](=O)[O-])cc2)CC1)c1ccc(F)cc1,-2.0,6.6%,1.5,-9,24,-9
COc1ccc2c(Cn3cnc4cc([N+](=O)[O-])ccc4c3=O)cc(=O)oc2c1,3.9,4.2%,-0.2,-26,-18,-15
Cc1c([N+](=O)[O-])c([N+](=O)[O-])nn1CC(=O)N1CCOCC1,-0.2,0.7%,0.9,3,12,-3
CN(NC(=O)Nc1ccc(Cl)cc1)c1c(Cl)c(Cl)nn1C,-2.7,0.3%,-0.1,-3,-15,5
CC1CCC(NC(=O)c2cccn2C)CC1 (stereo not given),-2.8,0.8%,-1.1,-5,-7,-1
CC(=O)Nc1ccc(-c2ccnc3c2CC(C)(C(=O)Nc2ccccc2)O3)cc1 (stereo not given),6.4,2.2%,0.0,-10,·,-11
# (cont.)
SMILES,D2 ag,PINK1 modulator,TRPML1 ag,Six1-Eya2 blk,TRPML1 inh,CtBP-E1A inh
O=C(O)c1ccc2c(c1)ncn2C1CCCC1,-3.6,2.0%,0.1,1,5,4
COc1ccc(Cc2nn3c(-c4ccccc4Br)nnc3s2)cc1,0.3,-1.4%[38.3 µM],2.8,-5,24,-12
CN(C)CCNC(=O)c1ccc2nc(CCc3ccccc3)oc2c1,·,1.2%,0.6,·,2,·
COc1ccc(C(=O)NCC(c2cccnc2)N2CCN(c3ccccc3)CC2)cc1OC (stereo not given),-4.9,3.8%,-0.2,-3,-12,-4
COc1ccc(-c2n[nH]c(C)c2-c2ccc(Cl)cc2)c(O)c1,0.3,10%,2.5,-1,22,1
CNc1nc(N/N=C/c2cc3c(cc2[N+](=O)[O-])OCO3)nc(Nc2ccccc2)n1,3.2,-2.1%,1.3,-2,-7,·
CCNc1nc(NC(C)C)nc(OCCOC(=O)c2ccccc2)n1,-2.7,-2.5%[38.3 µM],2.1,0,-2,4
CC(C)(C)NC(=O)COC(=O)Cc1ccc(Cl)cc1,3.9,-0.2%,-0.2,8,-9,-1
CCCN1CCC(N(C)CCc2ccc(OC)c(OC)c2)CC1,-1.6,·,1.3,4,-10,10
CCCCCCOC(=O)C(C#N)c1nc2ccccc2nc1N1CCOCC1 (stereo not given),0.7,2.2%,1.8,3,6,9
C=CCOc1ccccc1/C=c1\sc2nc(-c3oc4ccccc4c3C)nn2c1=O,2.7,?,0.1,2,-12,3
COc1cc(Nc2cccc[n+]2C)cc(OC)c1OC,?,-0.2%,-0.1,5,3,·
Cc1ccc(C(=O)COC(=O)CCC(=O)Nc2ccc(Oc3cc(C)ccc3C(C)C)cc2)cc1,·,1.1%,2.0,·,-10,·
Cc1ccccc1CN1CCN(CC(=O)NCCCN2CCN(c3ccc(F)cc3)CC2)C1=O,-1.8,-3.7%,-0.6,2,-11,-7
CCOc1ccc(N(C(=O)Cn2nnc3ccccc32)C(C(=O)NCc2ccccc2)c2ccc(OC)cc2)cc1 (stereo not given),·,2.6%,-0.4,·,-9,·
Cc1ccc(OCCOC(=O)C2CCN(S(=O)(=O)c3ccc(C)c(C)c3)CC2)cc1,-4.6,-1.3%,2.8,7,18,9
CCN(CC)CCNc1nc(-n2nc(C)cc2C)nc2sc3c(c12)CC(C)(C)OC3,-4.2,1.5%,0.1,2,-3,3
COCCN1C=C2C(=O)C(C)(OC(=O)CCc3ccccc3)C(=O)C=C2C=C1c1ccc(C#N)cc1 (stereo not given),11,1.1%,-0.2,0,2,·
O=C(O)CCCCC1SCC2NC(=O)NC21 (stereo not given),-7.3,-1.1%,·,3,·,8
O=C(NCc1ccccc1)N1CCC(Cc2ccccc2)CC1,6.1,3.2%,0.9,4,27,9
O=C(Nc1c(-c2ccccc2)nc2ccccn12)c1ccco1,-4.3,-3.6%,-1.5,-2,-5,8
COc1cccc(-c2noc(CCC(=O)Nc3cccnc3)n2)c1,-3.4,1.3%,-0.5,-4,-8,-1
COc1ccc(NCc2nnc(SCC(=O)NCc3ccccc3)n2-c2ccccc2OC)cc1,-0.7,0.6%,-0.6,-10,-13,-3
CCOC(=O)CCCSc1nc2sc3c(c2c(=O)[nH]1)CCC3,-0.2,·,0.3,6,6,-3
Cc1cc(NC(=O)c2ccc3c(c2)C(=O)N(C2CCCCC2)C3=O)no1,-0.8,6.9%,-0.1,2,-11,6

# At a glance, three of the compounds above.
SMILES,D2 ag,PINK1 modulator,TRPML1 ag,Six1-Eya2 blk,TRPML1 inh,CtBP-E1A inh
COc1ccc(NCc2nnc(SCC(=O)NCc3ccccc3)n2-c2ccccc2OC)cc1,-0.7,0.6%,-0.6,-10,-13,-3
CCOC(=O)CCCSc1nc2sc3c(c2c(=O)[nH]1)CCC3,-0.2,·,0.3,6,6,-3
Cc1cc(NC(=O)c2ccc3c(c2)C(=O)N(C2CCCCC2)C3=O)no1,-0.8,6.9%,-0.1,2,-11,6

# Next section
SMILES,D2 ag,PINK1 modulator,TRPML1 ag,Six1-Eya2 blk,TRPML1 inh,CtBP-E1A inh
Cc1ccc(NS(=O)(=O)c2cc(C(=O)NCc3ccccn3)ccc2Cl)cc1,-0.2,·,0.5,1,-17,8
Cc1nc(N2CCN(C(=O)c3ccco3)CC2)c(C#N)c2c1CCCC2,2.1,4.4%,1.5,-1,16,3
O=C(C(=Cc1ccc(F)cc1)C(=O)c1ccccc1)c1ccccc1,-12,-1.4%,-0.4,30,·,-6
COc1cc(-c2noc(C)c2C(=O)NCc2ccc3c(c2)OCO3)cc(OC)c1OC,1.1,-0.9%,-0.4,1,1,4
CCOC(=O)N1CCN(C(=O)c2ccc(Cn3c(=S)[nH]c4cc5c(cc4c3=O)OCO5)cc2)CC1,-1.4,-0.9%[38.3 µM],1.8,-7,23,-8
COC(=O)C1=C(COc2ccccc2)NC(=O)NC1c1ccc(Br)cc1 (stereo not given),-1.8,0.6%,-0.4,-10,8,-5
Cc1ccc(Nc2nc(NCc3cccs3)nc3ccsc23)c(C)c1,-5.8,?,8.3,-9,13,-11
O=S(=O)(Nc1nc2ccccc2nc1N1CCN(c2ccccc2F)CC1)c1ccc(Cl)cc1,-2.8,·,-0.3,3,7,7
Cc1nc2ccc(NC(=O)COc3cccc(F)c3)cc2s1,-0.7,-1.2%,2.6,-9,13,0
Cc1ccc(C)c(N2CCN(C(=O)Cn3cnc4sc(C)c(S(=O)(=O)N5CCN(c6ncccn6)CC5)c4c3=O)CC2)c1,·,6.1%,0.1,·,3,·
COc1ccccc1C(=O)NCCn1cc(SCC(=O)Nc2cc(C)on2)c2ccccc21,1.7,1.1%[38.3 µM],2.0,-5,-3,-15
CCCOc1ccc(C(=O)N(Cc2cccs2)C2CCS(=O)(=O)C2)cc1 (stereo not given),-2.6,-0.8%&-0.4%,0.3&-0.9,5,1&-7,-2
Clc1ccc(COc2ccccc2-c2ccnc3ncnn23)cc1,-1.2,5.5%,0.8,0,6,12
COc1cc(NS(=O)(=O)c2c(C)[nH]c(C)c2C(=O)N2CCCC2)cc(OC)c1OC,0.6,1.1%,0.0,-1,-16,-2
Cc1c(NC(=O)/C(C#N)=C/c2ccccc2)c(=O)n(-c2ccccc2)n1C,-0.3,0.3%,-0.3,-8,-7,-8
O=C(NC1CCN(C(=S)Nc2ccccc2Cl)CC1)C1CCCCC1,-0.6,1.7%,-0.3,1,-6,-13
S=c1[nH]c(-c2ccccc2)cn1/N=C/c1cccs1,1.3,9.0%,0.0,-14,-8,-11
COc1ccc(NC(=S)NC(=O)c2ccccc2Cl)cc1,-4.6,0.6%,0.7,-4,-9,·
C=CCN1C2CCCC1CC(NC(=S)Nc1ccc(Cl)cc1)C2 (stereo not given),-0.3,-0.2%,1.5,0,-20,6
O=C(CSc1nccn1Cc1ccc(Cl)cc1)Nc1nc2ccccc2s1,·,0.2%,-0.8,·,-6,·
CC(=O)c1cccc(NC(=O)CSc2nc(=O)n(CCN3CCOCC3)c3c2CCCC3)c1,-1.5,3.8%,-0.6,-7,2,-8
Cc1cccc(SCC(=O)Nc2ccc3c(c2)OCCO3)c1,-0.8,-0.5%,-0.4,2,10,10
COc1ccc(NC(=O)COC(=O)/C=C/c2ccccc2[N+](=O)[O-])cc1,-3.3,-2.3%,-0.5,1,-3,-9
COc1ccc(/C=N\Nc2ccccc2[N+](=O)[O-])c(C(=O)O)c1OC,-7.2,0.0%,·,-21,·,-15
Cc1ccc(CS(=O)(=O)Cc2ccc(C(=O)NCc3ccccn3)o2)cc1,-0.5,-1.5%[38.3 µM],-0.2,-13,16,14
